A1 inh = inhibitors of the anti-apoptotic protein A1, read as caspase activation; MEF A1-2A-BIM cells, Caspase-Glo 3/7 luminescence, 3 h; percent of clofoctol response, vehicle zero; caspase activation, % (test concentration not listed); 330,000 compounds, 0.066% hits; AID 2462;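 active means over half of replicate activation scores above 10%, or exactly half above 10 with the replicate mean above 10; inconclusive means replicate mean below 10 yet half the replicates above 10; inactive means over half of replicates below 10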;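 further: wells of about 30 µL received 50 nL stock; many hits fall short of the cut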
Beta apoptosis = blocks beta cell apoptosis. INS-1E cytokine-induced death, ATP luminescence, 48 h; percent of positive-control rescue, neutral wells zero. protection from apoptosis, % (no concentration beside the values). 300,000 compounds, 0.8% hits. AID 435005;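 active means all replicates at 75% or more, or half of them and the mean; inconclusive means half reach 75% but not the mean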;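 further: 0% = cytokine-treated negative control wells and 100% = positive control rescue; higher means more ATP so stronger rescue from cytokine killing; wells of about 40 µL received 100 nL stock; the first replicate is given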
Vif A3G = HIV-1 Vif–A3G interaction blockers – biochemical, TR-FRET, GST-Vif 1-94, biotin-A3G peptide, dose response retest, primary screen (AID 1117319). 260,000 compounds, 0.57% hits. inhibition, %; hits with a dose series show IC50 in µM. TR-FRET GST-Vif / biotin-A3G peptide binding; higher % means a stronger effect; test concentration not given here; strong numbers were not always called active;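 active means above the screen mean plus three standard deviations and confirmed in dose response; inconclusive means results disagree or hit not tested in dose response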;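 further: Vif residues 1-94 fused to GST binding biotinylated APOBEC3G peptide 110-148; 0% = full assay without inhibitor and 100% = GST in place of GST-Vif; retest series ran down from 100 µM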
MLL AF4-AF9 inh = inhibitors of human MLL-AF4/AF9 interaction | P42568 | AlphaScreen, biotin-AF4 peptide binding to FLAG-AF9 | inhibition, % at 10 µM | AID 651704 | 350,000 compounds, 0.47% hits;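 active means every replicate reaching a set inhibition limit, whatever the replicate mean, cut at about 25% in these data; inconclusive means mean inhibition reaches that limit but some replicates miss it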;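 further: 0% = plate neutral control median and 100% = total signal loss; the record names both 10 and 1 µM as test concentration; the first replicate is given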
Target sequence (P42568 whole entry, looked up): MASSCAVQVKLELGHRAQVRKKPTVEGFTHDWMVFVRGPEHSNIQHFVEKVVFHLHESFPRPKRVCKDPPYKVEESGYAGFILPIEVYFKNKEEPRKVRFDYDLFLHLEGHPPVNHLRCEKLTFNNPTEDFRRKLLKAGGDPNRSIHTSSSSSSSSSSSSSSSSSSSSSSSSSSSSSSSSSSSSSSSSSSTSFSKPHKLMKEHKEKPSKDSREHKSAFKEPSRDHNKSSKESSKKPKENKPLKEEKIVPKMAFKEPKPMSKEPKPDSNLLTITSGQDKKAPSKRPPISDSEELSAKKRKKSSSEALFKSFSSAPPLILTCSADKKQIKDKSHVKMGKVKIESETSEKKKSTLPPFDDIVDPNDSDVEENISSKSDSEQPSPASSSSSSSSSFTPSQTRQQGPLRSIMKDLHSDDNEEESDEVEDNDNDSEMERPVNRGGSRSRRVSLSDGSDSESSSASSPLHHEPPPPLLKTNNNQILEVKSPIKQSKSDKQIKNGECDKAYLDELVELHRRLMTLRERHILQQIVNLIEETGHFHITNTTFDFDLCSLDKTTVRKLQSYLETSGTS
T cruzi inh = blocks replication of Trypanosoma cruzi | inhibition, % (concentration not given with the values) | T. cruzi beta-gal in NIH3T3, luminescence, 90 h | AID 1885 | 300,000 compounds, 1.4% hits;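 active means mean inhibition across valid replicates above about 55%, limit read from the data; inconclusive means mean below that limit but half or more replicates reach it; inactive means mean below it, under half of replicates reach it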;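 further: signal also drops with host cell toxicity which is not excluded here; 0% = plate median of DMSO wells and 100% = zero luminescence signal; higher percent means less beta-gal luminescence so fewer parasites; stock transfer was 50 nL into about 50 µL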
RanGTP-Imp inh = disruptors of Ran-importin-beta complex formation – biochemical, FRET, CFP-Ran, YFP-importin-beta, homogeneous, primary screen; cell-free CFP-Ran/YFP-importin-beta FRET ratio; inhibition, % (concentration not given with the values); 300,000 compounds, 1.1% hits;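 active means most replicates above 15%; inconclusive means exactly half above 15%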;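 further: 0% = DMSO wells and 100% = Ran loaded with GDP instead of GTP; wells of about 40 µL received 100 nL stock; the first replicate is given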
Calb FLC = C. albicans growth modulation with fluconazole; C. albicans CaCi-2 (fluconazole-resistant clinical isolate) + fluconazole, Alamar Blue growth, 48 h; growth inhibition, % (no concentration beside the values); 300,000 compounds, 0.57% hits;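 active means most replicates above 75%; inconclusive means exactly half above 75%; inactive means most below 75%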;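 further: all wells also contain fluconazole at 8 µg/ml as a sub-toxic cotreatment; 0% = median of DMSO wells and 100% = median of geldanamycin control wells; wells of about 8 µL received 7.5 nL stock; the first replicate is given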
LANA-H2A inh = blocks KSHV LANA binding to histone H2A/H2B; Q9QR71; cell-free LANA-H2A/H2B peptide, fluorescence polarization; inhibition, % (concentration not given with the values); 320,000 compounds, 0.6% hits; in the data active means inhibition mostly above about 10%, no sharp cut-off; inactive means mostly below about 6.7%;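 further: stock transfer was 7.5 nL into about 10 µL; 0% = median of vehicle wells and 100% = median of positive control wells; one replicate is shown; the record names a cut of 25% in any replicate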
* hit, by the source's call; ? = inconclusive; / = not tested or not shown; & = joins results of further samples.

compound,A1 inh,Beta apoptosis,Vif A3G,MLL AF4-AF9 inh,T cruzi inh,RanGTP-Imp inh,Calb FLC,LANA-H2A inh
COc1cccc(CNC(=O)C2CCN(S(=O)(=O)c3cccs3)CC2)c1,1.6,-10,5%,-28,31,1.5,0,3.6
Cc1ccccc1OCC(=O)N(Cc1cccc(F)c1)C1CCS(=O)(=O)C1 (stereo not drawn),0.0,-1,-5%,-7.2,-6,-4.0,-9,9.4
CCN(c1ccc(OC)cc1)S(=O)(=O)c1nnc(NC(=O)C2CCCCC2)s1,1.3,5,1%,-13,-7,-0.8,-4,-0.3
Cc1ccc2cc(/C=N/NC(=O)[C@H](C)NC(=O)OC(C)(C)C)c(Cl)nc2c1,0.4,-1,/,/,11,0.6,-2,0.8
C/C=C/COC(=O)c1[nH]c2c(c1C)C(=O)CC(c1ccco1)C2 (stereo not drawn),-0.1,31,?,1.1,16,2.6,0,-5.8
CC(=O)Nc1ccc(NC(=O)CSc2nnc(NC(=O)c3ccc(Br)o3)s2)cc1,-5.9,17,/,-0.5,-13,?,-7,1.8
COc1ccc(/C=C/C(=O)Nc2cccnc2)cc1OC,-1.1,-2,-5%,0.4,-12,-5.4,-8,0.7
CC(NC(=O)C1CCC(CNc2c(N3CCCCC3)c(=O)c2=O)CC1)c1ccccc1 (stereo not drawn),0.3,-4,29%,-14,-11,3.8,-8,5.0
Cc1ccnc(NS(=O)(=O)c2ccc3ccccc3c2)n1,0.3,2,3%,/,14,1.7,-8,-3.5
Cc1cc(NC(=O)c2c(F)cccc2F)n(-c2nc3ccccc3[nH]2)n1,0.1,36,0%,/,18,1.3,5,-0.1
CCc1ccc(NC(=O)Cc2ccc(OC)cc2)cc1,-0.4,13,/,/,0,1.2,-37,-3.0
O=C(CSCc1c(Cl)cccc1Cl)NN=C1CCCC1,1.0,-7,15%,-0.4,-8,-1.2,2,4.1
COc1ccc(-n2nc(C(=O)NCC(=O)N3CCOCC3)c3ccccc3c2=O)cc1OC,-2.0,-8,/,2.4,-12,4.1,4,1.6
CC(=O)c1ccc(OCCCC(=O)Nc2cc(Cl)ccc2-n2cncn2)cc1,0.8,/,-11%,-1.0,-4,0.4,-6,0.4
COc1ccc(OCCSc2nc(C)nc3ccccc23)cc1,0.0,5,-2%,-2.1,9,?,16,4.7
COc1ccc(-n2ncc3c(NCc4ccco4)ncnc32)cc1,-0.9,-5,4%,/,-26,3.4,44,5.4
N#CCSc1nc2ccc(N3CCCCC3)cc2c(=O)n1Cc1ccccc1,0.1,4,2%&27%,/,18,-0.6,24,0.0
COc1cccc(/C=N/NC(=O)CNC(=O)COc2ccccc2)c1O,1.3,19,8%,-2.6,4,3.6,-11,-4.2
O=C(N/N=C/c1cccc(O)c1)c1ccc(COc2ccccc2Br)cc1,-0.8,-4,-1%,/,-2,-2.1,-1,-11
Cc1ccc(C(=O)N2N=C(c3ccc(NS(C)(=O)=O)cc3)CC2c2cccs2)cc1 (stereo not drawn),1.0,-6,-2%,1.0,9,1.7,-2,-1.0

Following part:
compound,A1 inh,Beta apoptosis,Vif A3G,MLL AF4-AF9 inh,T cruzi inh,RanGTP-Imp inh,Calb FLC,LANA-H2A inh
CCCCOC(=O)Cn1c(=N)n(CCN(CC)CC)c2ccccc21,0.0,/,-3%,/,-16,3.3,28,3.4
COc1ccccc1/C=C/C(=O)NCC(=O)N/N=C(/C)c1ccc(Cl)cc1,0.0,-3,-4%,2.0,3,4.2,1,-2.7
Cc1ccc(S(=O)(=O)N2CCCC2C(=O)NCCc2nc3ccccc3[nH]2)cc1 (stereo not drawn),1.5,-4,-2%,/,20,-4.2,12,1.7
O=C(c1ccc(S(=O)(=O)N2CCOCC2)cc1)N1CCN(S(=O)(=O)c2ccc(Cl)s2)CC1,-0.5,0,11%,0.0,9,2.2,-2,-1.7
Cc1ccc2oc(-c3cccc(NC(=S)NC(=O)c4cccs4)c3)nc2c1,-0.2,0,/,-0.8,-1,0.1,37,-5.4
COc1cc2c(cc1OC)CN(C(=O)CCNS(=O)(=O)c1ccccc1F)CC2,-0.5,9,/,-0.8,10,3.3,-4,-9.6
COc1ccccc1CNC(=O)COC(=O)Cc1ccc(Cl)cc1,-0.4,-6,-12%,-3.7,-8,17*,-5,-1.8
O=C(Nc1cccc(C(F)(F)F)c1)c1cccnc1N1CCN(CCO)CC1,0.4,-4,31%,/,24,5.7,-2,4.4
O=S(=O)(Nc1ccc2c(c1)OCCO2)c1c(F)cccc1F,1.3,0,/,-2.2,6,-3.4,3,-3.6
CC(C)CCN1C(=O)c2ccc(C(=O)Nc3ccc(O)cc3C(=O)O)cc2C1=O,0.9,/,7%,11,-11,-0.7,8,0.2
CCC(C)N(C(=O)c1csnn1)C(C(=O)NC1CCCC1)c1ccc(F)cc1 (stereo not drawn),0.5,0,/,0.4,-14,-0.4,2,11
O=C(C(Sc1ccccc1)c1ccc(Br)cc1)N1CCOCC1 (stereo not drawn),0.8,0,10%,-2.6,4,5.0,13,4.7
O=C1OC2(CCCCC2)OC(=O)C1=CNc1ccc2c(c1)OCO2,-0.7,-1,?,/,6,-0.6,?,1.2
CCn1c(C)cc(=S)c2ccccc21,-2.3,67,42%,/,17,-4.3,4,5.4
Cc1ccc(NC(=S)NC2CCCCC2)cc1S(=O)(=O)N(C)C,0.1,1,?,-1.7,-9,6.9,-4,0.1
CC[C@H](C)[C@@H]1NC(=O)c2cc([N+](=O)[O-])cc(I)c2SC[C@@H](C(N)=O)NC(=O)[C@H](CCCCN)NC1=O,1.1,-2,5%,-0.7,/,/,/,-2.1
NC(=O)Cn1nnc(-c2ccccc2NC(=O)c2cnccn2)n1,-0.4,-4,-4%,/,-5,-6.7,-1,0.8
O=C(NC(c1ccccc1)c1c(O)ccc2ccccc12)c1ccccc1Cl (stereo not drawn),-0.1,-4,-4%,/,-7,/,24,1.1
CCOC(=O)CSc1nc2cccnc2n1-c1ccc(F)cc1,0.0,-9,2%,/,2,?,2,2.3
C/C(CC(=O)Nc1ccc2ccccc2c1)=N\NC(=O)c1ccc(O)c(O)c1,0.3,-4,?,20,0,-2.9,-7,-2.8

Later entries.
compound,A1 inh,Beta apoptosis,Vif A3G,MLL AF4-AF9 inh,T cruzi inh,RanGTP-Imp inh,Calb FLC,LANA-H2A inh
C=CCOc1cccc(C2C(C(=O)c3ccc(C)o3)=C(O)C(=O)N2c2nccs2)c1 (stereo not drawn),-0.4,2,-1%,/,12,8.0,40,5.2
CCOC(=O)C1=C(COC(=O)Cc2ccc(Br)cc2)NC(=O)NC1C (stereo not drawn),0.6,1,-14%,1.7,-13,3.2,0,-0.1
CCOCCSc1n[nH]c(=O)n1CCc1ccccc1,-0.4,-3,-7%,-2.7,-3,-4.3,/,3.0
CCCCc1nc2cc(C(=O)N3CCNC(=O)C3)ccc2o1,-0.1,-4,-4%,-1.4,7,1.1,17,2.6
COc1ccc(CCNC(=O)c2ccc(CNS(=O)(=O)c3cccc(Cl)c3)cc2)cc1OC,0.7,-6,/,/,-8,9.9,12,2.6
C=CCn1c(SCCCc2ccccc2)nc2c1c(=O)[nH]c(=O)n2C,-0.1,11,0%,-7.6,18,5.6,-8,1.8
COc1ccc(N2CCN(C(=O)CC(C)S(=O)(=O)c3ccc4c(c3)NC(=O)CO4)CC2)cc1 (stereo not drawn),-0.1,-3,/,1.8,6,3.8,-4,-1.9
OCC1(Cc2ccccc2)CCN(CCCC2CCCC2)CC1,0.3,6,-6%,0.1,35,0.2,-8,-2.2
COCCNC(=O)c1ccc(CS(=O)(=O)c2c(Cl)cccc2Cl)o1,0.0,-7,40µM*,-2.9,3,?,7,-8.6
CCOC(=O)[C@@H]1[C@H]2COc3ccccc3[C@@H]2N2C(=O)N(c3ccc(Cl)cc3)C(=O)[C@@]12C,0.5,-3,/,-7.3,-12,0.0,6,1.1
COc1ccc(NC(=O)C23CC4CC(C2)CC(n2cnc(Br)n2)(C4)C3)c(OC)c1,-0.7,-5,2%,/,4,-1.2,0,3.9
Cc1cc(Br)ccc1OCC(=O)NNC(=O)Cc1ccccc1,0.0,0,15%,-1.1,-5,-2.7,-1,-1.6
Cc1ccc2c(c1)-c1[nH]c(=S)ncc1CS2,0.2,-5,-7%,-0.9,39,4.5,3,0.1
Cc1ccc(NC(=O)C(C)OC(=O)/C=C/c2ccccc2)cc1S(=O)(=O)N1CCOCC1 (stereo not drawn),0.1,/,3%,-2.4,-5,-1.3,2,0.2
COc1ccnc(N=CNOCc2cccc(C(F)(F)F)c2)c1C#N,-0.2,7,5%,-1.1,2,0.3,24,4.5
C/C(=N\Nc1nccnc1Cl)c1c(F)c(F)c(F)c(F)c1F,-0.4,-3,20%,2.1,-3,?,-4,-16
Cc1cccc(N2CCN(C(=O)c3ccc4c(c3)c(C)c(C)n4C)CC2C)c1 (stereo not drawn),0.1,-10,-8%,3.7,12,4.1,0,-0.7
Cc1ccc(C2CC(c3ccc(Cl)cc3)=NNC2=O)cc1 (stereo not drawn),-0.3,-6,1%,/,-9,-0.2,2,5.4
Cc1ccc(SCc2[nH]nc3c2C2(C(=O)N(C)c4ccccc42)C(C#N)=C(N)O3)cc1 (stereo not drawn),0.2,-5,2%,/,3,1.7,12,-1.1
Cc1ccccc1C(=O)Oc1cccc(Nc2ncnc3ccccc23)c1,0.3,56,-3%,/,-8,0.8,4,1.6
O=C(NC(=S)Nc1ccc([N+](=O)[O-])cc1O)C1CCCCC1,0.4,0,8%,2.2,9,/,/,-3.9
COCCNC(=O)C(c1cccs1)N(Cc1cccs1)C(=O)Cn1nnc2ccccc21 (stereo not drawn),0.0,-6,31%,/,11,-2.3,6,0.8
O=C(Nc1cccc(NC(=O)c2ccccc2F)c1)c1ccccc1,-0.9,1,-8%,-1.7,15,-1.4,-1,1.8
